Six1-Eya2 blk – Six1/Eya2 interaction inhibition; Q15475+O00167; AlphaScreen GST-Six1/His-Eya2 binding, biochemical; hits give low values; control for the full effect not named in the record; activity change, % (no concentration beside the values); 360,000 compounds, 0.56% hits; in the data active = activity change below about -65%; inconclusive = about -30% to -65%; inactive = above about -30%; also: % is scaled to controls: 0 for no effect and ±100 for the full control effect
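GST-Six1 + His-Eya2 (5X stock: 250/500 nM); Tris pH 8.0, 300 mM NaCl, 0.05% BSA, 0.02% Tween 20; GSH donor/Ni acceptor beads; 1 h 37 °C dark; AlphaScreen readout.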
CtBP-E1A inh – blocks the CtBP interaction with E1A; 340,000 compounds, 0.49% hits; activity change, % (no concentration beside the values); AlphaScreen GST-E1A/His-CtBP binding, 1536-well; hits give low values; control for the full effect not named in the record; AID 651724; in the data active means activity change below about -65%; inconclusive means about -30% to -65%; inactive means above about -30%; also: % is scaled to controls: 0 for no effect and ±100 for the full control effect
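GST-E1A and His-tagged CtBP (125 nM each as 5X stock) were preincubated with pin-transferred compound for 2 h at 37 °C in the dark, then glutathione donor and nickel acceptor beads were added for 1 h before AlphaScreen reading.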
TRPML1 ag – agonists of human TRPML1 channel; TRPML1-expressing cells, Ca2+ dye fluorescence, FDSS; host cell line not named in the record; reference of the full effect not given here; 410,000 compounds, 0.12% hits; activation, % (test concentration not listed); AID 624414; in the data active = activation above about 50%; inconclusive = about 30% to 50%; inactive = below about 30%; also: 0% is about no effect; the text of the record puts the active cut at 80%
Target sequence (Q9GZU1 whole entry, looked up): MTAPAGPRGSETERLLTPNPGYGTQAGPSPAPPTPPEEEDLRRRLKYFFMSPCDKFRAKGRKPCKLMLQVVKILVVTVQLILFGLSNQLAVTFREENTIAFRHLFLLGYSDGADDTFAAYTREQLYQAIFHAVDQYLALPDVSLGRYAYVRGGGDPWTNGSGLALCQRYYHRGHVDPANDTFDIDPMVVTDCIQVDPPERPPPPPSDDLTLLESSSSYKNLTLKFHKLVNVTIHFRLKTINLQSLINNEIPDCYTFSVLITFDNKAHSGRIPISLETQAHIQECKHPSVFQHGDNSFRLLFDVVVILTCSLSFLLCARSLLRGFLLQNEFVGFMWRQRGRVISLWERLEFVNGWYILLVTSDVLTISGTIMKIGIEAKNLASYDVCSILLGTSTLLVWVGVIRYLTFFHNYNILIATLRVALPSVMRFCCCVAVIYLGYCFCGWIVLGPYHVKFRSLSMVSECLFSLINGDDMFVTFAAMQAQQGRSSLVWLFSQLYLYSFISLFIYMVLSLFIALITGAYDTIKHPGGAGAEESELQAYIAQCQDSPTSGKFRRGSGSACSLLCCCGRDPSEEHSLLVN
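Calcium fluorescence on an FDSS kinetic reader gave the read-out. Tet-induced TRPML1-DL cells were plated overnight, dye-loaded (Ca8 with quencher, 45-90 min, room temperature, dark), then read 110 s after compound addition, and again 110 s after 4uM final 54-4 (EC80).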
PINK1 modulator – modulators of PINK1 expression | 410,000 compounds, 0.2% hits | PINK1 immunofluorescence, high-content cytometry, 24 h | Potency, µM (series often up to 76.6 µM), for the others: at the highest dose activation (PINK1 increase), most hits filed as activators; active = well fitted activation curve with a large enough effect; inconclusive = small, poorly fitted or top-dose-only effect; inactive = flat fitted curve, though single readings scatter; cell line not stated here;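 also: potency is read from the fitted curve at half-maximal effect; % of control where 0% means no effect; nearly all actives have a fitted effect of over 65% in size; a mitochondrial uncoupler was the plate control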
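Readout is PINK1 immunofluorescence, quantified alongside mitochondrial, cell and nuclear markers by laser-scanning microplate cytometry. Cells from a stable line were exposed to compound titrations (5 concentrations) for 24 hours, with CCCP controls.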
D2 ag – activates the human D2 dopamine receptor. P14416. DiscoveRx PathHunter D2 beta-arrestin, luminescence, 90 min; 100% = 57 uM dopamine signal. activation, % (no concentration beside the values). 360,000 compounds, 0.084% hits; in the data active = activation above about 40%; inconclusive = about 15% to 40%; inactive = below about 15%; also: compound concentration not given in the record; the text of the record calls up to 30% inactive
Target sequence (P14416 whole entry, looked up): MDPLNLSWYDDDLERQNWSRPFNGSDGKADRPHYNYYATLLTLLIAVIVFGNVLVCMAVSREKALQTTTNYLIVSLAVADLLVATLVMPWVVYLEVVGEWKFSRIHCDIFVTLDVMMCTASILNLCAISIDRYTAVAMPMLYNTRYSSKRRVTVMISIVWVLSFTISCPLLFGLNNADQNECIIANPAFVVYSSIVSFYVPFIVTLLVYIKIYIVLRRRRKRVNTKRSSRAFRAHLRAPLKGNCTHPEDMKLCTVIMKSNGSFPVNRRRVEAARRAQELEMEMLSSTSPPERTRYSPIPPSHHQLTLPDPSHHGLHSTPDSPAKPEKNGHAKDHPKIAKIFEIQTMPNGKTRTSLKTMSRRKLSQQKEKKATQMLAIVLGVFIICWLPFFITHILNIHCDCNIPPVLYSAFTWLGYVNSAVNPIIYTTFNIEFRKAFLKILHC
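DiscoveRx PathHunter D2 beta-arrestin cells (2,100/well) attached overnight, then compound-stimulated 90 min at 37 C in HBSS/10 mM HEPES/0.1% Tween-20 buffer; beta-galactosidase complementation read by luminescence after 1 h at ambient temperature. Dopamine 57 uM final (EC100) as control.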
D2 potentiator – potentiates the human D2 dopamine receptor allosterically | 360,000 compounds, 0.23% hits | P14416 | DiscoveRx D2 beta-arrestin cells, luminescence, 90 min; 100% = 57 uM dopamine signal | potentiation, % (test concentration not listed); active = potentiation of 50% or more; inconclusive = 30% to 50%; inactive = 30% or less;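 also: compound concentration not given in the record; tested on top of an EC20 dose of dopamine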
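D2 cells co-treated with compound plus 50 nM dopamine (EC20) for 90 min at 37 deg C to detect potentiation. Beta-arrestin recruitment was read as enzyme-fragment luminescence after 1 h at ambient temperature. Full response was set by 57 uM dopamine.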
* marks the source's active call; other numbers are inactive results; u = inconclusive; x = not tested or not shown; [ ] = dose if it differs, or a comment.

SMILES	Six1-Eya2 blk	CtBP-E1A inh	TRPML1 ag	PINK1 modulator	D2 ag	D2 potentiator
Cc1cc(C)c(S(=O)(=O)NCC23C=CC(O2)C2C(=O)N(c4ccccc4)C(=O)C23)c(C)c1 (stereo unspecified)	-1	4	-0.5	-2.5%	-4.0	2
CC(C)(O)C#CC#CCN1CCOCC1	14	1	0.4	0.9%	2.1	4
CC1CCC(NC(=O)CSc2nnnn2C)CC1 (stereo unspecified)	12	x	0.5	1.9%	-3.0	-7
CCOC(=O)c1ccc(S(=O)(=O)N2CCNCC2)cc1	2	-4	2.0	-1.7%	0.4	0
O=C(CN1CCN(C(=O)c2ccc(-c3nc4ccccc4s3)o2)CC1)Nc1cccc(F)c1	1	-9	0.2	-0.9%	-1.8	-14
NS(=O)(=O)c1cccc(NC(=O)CN2CCC(Cc3ccccc3)CC2)c1	0	3	1.3	1.1%	-1.6	-12
Cn1nc(C(=O)Nc2sccc2C(N)=O)ccc1=O	-24	u	2.0	-1.2%	-2.4	-15
O=C(NCC1CCCO1)c1cn(Cc2ccccc2Cl)nc1-c1ccccc1 (stereo unspecified)	-2	-1	1.4	-2.2%	-5.3	-69
CCOC(=O)c1cc2c(=O)n3ccccc3nc2n(Cc2ccco2)c1=NC(=O)c1ccccc1OCC	7	-2	-1.1	6.5%	-3.8	-5
O=C1/C(=C/c2cccs2)SC(=S)N1CCCC(=O)N(CCO)c1ccccc1	-12	-2	0.1	6.9%	0.4	-11
CC1(C)OCC(N)(CO)CO1	-1	-10	0.1	2.6%	-5.1	-10
CC(=O)Cc1nsc(NC(=O)c2ccc(-c3ccc(Cl)c(Cl)c3)o2)n1	-1	-1	8.7	0.6%	-2.7	-3
Cc1cc(N2C(=O)C(O)=C(C(=O)c3cc4ccccc4o3)C2c2ccc(OC(C)C)cc2)no1 (stereo unspecified)	3	x	1.6	28µM*	-7.1	-9
CC(C)(C)c1ccc(OCCC(=O)OCC(=O)NC2CC2)cc1	3	x	-0.2	3.3%	-1.2	8
NNC(=S)Nc1ccccc1Cl	1	5	0.3	0.0%	2.6	-6
CCOc1ccc(NC(=O)C2CCCN(S(=O)(=O)c3cnc[nH]3)C2)cc1 (stereo unspecified)	-4	1	-1.0	-0.8%	-4.7	-2
CS(=O)(=O)N(CCc1ccccc1)CC(=O)NCc1ccccc1	0	-11	0.0	5.3%	-0.4	-2
COc1ccc(CCN2CC(C(=O)NCCc3ccccc3C)CCC2=O)cc1 (stereo unspecified)	-7	-2	-0.4	-0.7%	-5.7	-5
CN(C(=O)COC(=O)COc1ccc2ccccc2c1)c1c(N)n(Cc2ccccc2)c(=O)[nH]c1=O	0	-5	1.2	0.4%	2.4	-1
CC(C)COc1ccc(-c2nn(-c3ccccc3)cc2C(=O)Nc2nccs2)cc1	-1	-3	-1.0	u	1.0	1
CS(=O)(=O)c1ccc(C(=O)OCC(=O)NC23CC4CC(CC(C4)C2)C3)cc1[N+](=O)[O-]	11	-6	2.8	0.7%	1.9	-23
CCc1c(C)sc(NC(=O)Cc2ccccc2C)c1C(=O)N1CCOCC1	24	-3	-0.3	1.6%	-0.4	-11
O=C(Nc1nncs1)c1cccc(S(=O)(=O)N2CCOCC2)c1	5	-6	-0.8	-3.3%	0.7	-4
CCOC(=O)CCCCCC(=O)Nc1ccc2c(c1)C(=O)N([C@H](C)CO)C[C@@H](C)[C@H](CN(C)S(=O)(=O)c1cn(C)cn1)O2	1	5	-0.5	1.3%	-1.3	-1
CCCC(C)c1nnc(NC(=O)C(=O)OCC)s1 (stereo unspecified)	1	0	0.5	-0.2%	-2.6	-6
CC(C)CC1NC(=O)c2cc3ccccc3cc2-n2c1nc1ccc(F)cc1c2=O (stereo unspecified)	-1	-17	2.6	5.1%	-0.3	3
COc1cc(/C=C/C(=O)OCC(=O)N2CCN(S(=O)(=O)c3ccc(C)cc3C)CC2)ccc1O	-15	-20	2.2	0.4%	2.5	5
COC(=O)C1=C(CN2CCc3ccccc32)NC(=O)NC1c1cc(C)ccc1C (stereo unspecified)	-18	-6	1.0	5.9%	7.5	6
COc1ccc(-c2nnn(CC(=O)c3ccc4c(c3)OCCO4)n2)cc1OC	-3	-8	2.6	-1.9%	0.3	9
Cc1ccc(C2(c3noc(CN(C)Cc4cccnc4)n3)CCCC2)cc1	0	x	2.3	-0.3%	1.3	-4
COc1cc(SC)ccc1C(=O)Nc1nc(C)cc(C)n1	4	-11	0.1	-0.6%	-0.7	-14
CN(Cc1ccccc1)C(=O)c1cccc(NC(=O)Cc2ccc(NC(=O)C3CCN(C(=O)CCc4ccccc4)CC3)cc2)c1	-2	-3	-0.9	0.7%	-0.2	-3
O=C(Cn1cc([N+](=O)[O-])ccc1=O)NCc1ccc(Cl)cc1Cl	5	6	-0.6	2.5%	-1.3	8
CC(=O)Nc1ccc(NS(=O)(=O)c2ccc3[nH]c(=O)[nH]c3c2)cc1	-14	-22	2.9	2.8%	0.4	6
Cc1cc(C(=O)N/N=C(\CCC(=O)O)c2cccs2)c2ccccc2n1	-2	-22	0.4	5.9%	0.3	4
CCOC(=O)c1ccccc1NC(=O)CSc1ccc(-c2cccnc2)nn1	-2	-4	1.0	-0.7%	-4.3	1
COc1ccccc1N1CCN(S(=O)(=O)CCNC(=O)C2CC2)CC1	8	-8	0.4	1.7%	-4.7	1
COc1cccc(C(=O)NCC(=O)N/N=C/c2cccnc2)c1	1	6	0.5	0.6%	-3.4	-19
CC(C)(C)NC(=O)C(=O)NNC(=O)c1ccco1	20	x	0.6	0.9%	-2.6	-1
CSc1ccccc1NC(=O)CN(C)C(=O)C(C)SCc1nc2sc(C)c(C)c2c(=O)[nH]1 (stereo unspecified)	-4	x	0.2	0.4%	7.0	-1
Cc1cc[n+](C2=C([O-])c3ccccc3C(=O)/C2=N\S(=O)(=O)c2cccs2)cc1C	-1	-12	0.5	-2.0%	u	26
Cc1ccc(C=C2SC(=S)N(CCCC(=O)Nc3cccc(C(=O)O)c3)C2=O)cc1	-1	-6	0.1	3.6%	-3.5	-1
CC(C)(C)NC(=O)c1nc2ccccc2s1	0	12	0.7	11%	-0.4	-14
CCOc1cc(CNCCO)c(Cl)cc1OCC(=O)NCCc1ccccc1	0	-7	-0.2	0.9%[38.3 µM]	-1.7	-19
COc1ccc(-c2csc(C(C)(O)c3ccc(OC)cc3)n2)cc1 (stereo unspecified)	-4	4	-0.7	5.2%	9.1	-3

The closing six records of the part before are carried over, then new ones follow:
SMILES	Six1-Eya2 blk	CtBP-E1A inh	TRPML1 ag	PINK1 modulator	D2 ag	D2 potentiator
CSc1ccccc1NC(=O)CN(C)C(=O)C(C)SCc1nc2sc(C)c(C)c2c(=O)[nH]1 (stereo unspecified)	-4	x	0.2	0.4%	7.0	-1
Cc1cc[n+](C2=C([O-])c3ccccc3C(=O)/C2=N\S(=O)(=O)c2cccs2)cc1C	-1	-12	0.5	-2.0%	u	26
Cc1ccc(C=C2SC(=S)N(CCCC(=O)Nc3cccc(C(=O)O)c3)C2=O)cc1	-1	-6	0.1	3.6%	-3.5	-1
CC(C)(C)NC(=O)c1nc2ccccc2s1	0	12	0.7	11%	-0.4	-14
CCOc1cc(CNCCO)c(Cl)cc1OCC(=O)NCCc1ccccc1	0	-7	-0.2	0.9%[38.3 µM]	-1.7	-19
COc1ccc(-c2csc(C(C)(O)c3ccc(OC)cc3)n2)cc1 (stereo unspecified)	-4	4	-0.7	5.2%	9.1	-3
Cc1cc(OCCN2CC(C)OC(C)C2)ccc1[N+](=O)[O-] (stereo unspecified)	5	17	-0.8	0.1%[38.3 µM]	-1.4	-18
COc1cc(/C=C/C(=O)Nc2ccc3[nH]c(=O)[nH]c3c2)cc(OC)c1OC	-5	-5	0.0	3.8%	3.8	4
CCOC(=O)C(=O)N/N=C/c1ccc(F)cc1	-2	5	0.0	2.0%	-20	-10
CN(CC(=O)Nc1nccs1)S(=O)(=O)c1ccc(F)cc1	4	6	-0.1	0.8%[38.3 µM]	1.3	-6
Cc1nnc(SCc2ccc(C(=O)c3ccc(Cl)cc3)o2)n1-c1ccccc1	-6	1	1.6	x	1.9	3
Nc1nc(C(=O)N2CCOCC2)nn1S(=O)(=O)c1ccc(Cl)cc1	3	-1	0.8	-0.4%	1.3	17
COCc1nc2ccccc2n1Cc1ccccc1C	3	2	1.3	4.7%	-1.7	-2
CN(C(=O)c1cc2sccc2n1C)C1CCCCC1	-10	-10	0.9	7.1%[38.3 µM]	-3.1	-12
Cc1nc2ccc(S(=O)(=O)NCC(=O)N3CCc4ccccc4C3)cc2s1	-1	11	-1.0	-2.4%	-7.4	6
CCCCCN(C(=O)CCC(=O)OCc1cc(C(C)=O)ccc1OC)c1c(N)n(CCCC)c(=O)[nH]c1=O	7	-13	0.2	-0.2%	-1.2	-17
N#Cc1c(-c2ccc(Cl)cc2)nc2n(c1=O)CCCS2	2	6	0.4	x	0.2	10
CC(C)Cc1nnc(NC(=O)C2CC(=O)N(c3ccc4c(c3)OCCO4)C2)s1 (stereo unspecified)	8	-5	0.1	-2.0%	-4.5	1
O=C(NCc1ccco1)c1cnc2ccccn2c1=O	0	0	-0.6	3.8%	-1.5	-12
Cc1c(CC(=O)N[C@H](C(=O)O)C(C)C)c(=O)oc2cc3c(cc12)CCC(C)(C)O3	0	2	-0.1	2.7%	1.9	-1
COc1ccc(S(=O)(=O)N2CCOC23CCN(S(=O)(=O)c2cccs2)CC3)cc1	5	2	0.8	-0.3%	-3.7	-12
CCOC(=O)CSc1nc(-c2ccccc2)nc2c1oc1ccccc12	17	3	2.8	3.9%	-3.6	7
O=C(/C=C/c1ccccc1)Nc1cccc(C(=O)NCCc2ccccc2)c1	-3	0	1.1	1.1%	2.8	-8
CCSc1nnc(NC(=O)CSc2nc3c(c(=O)n2CC)SC(C)C3)s1 (stereo unspecified)	1	11	-1.1	2.9%	-1.0	16
O=c1c2ccc(Cl)cc2nc2n1CC/C2=C\c1cccc(O)c1	u	-27	-0.1	u	3.6	-9
Fc1cccc(COc2ccccc2C(=S)N2CCCC2)c1	-21	10	2.9	0.7%	-0.9	-6
O=C(NCC(c1cccs1)N1CCOCC1)c1cc(-c2ccccn2)nc2ccccc12 (stereo unspecified)	2	-19	x	-0.2%	-3.7	-9
O=C(O)COc1ccccc1/C=N/NC(=O)CSc1nc2ccccc2c(=O)n1-c1ccc(Cl)cc1	0	-4	1.5	-0.8%	-2.4	-12
COC(=O)c1ccc(NC(=O)Cn2nc(C)cc2C)cc1	21	14	-0.2	2.6%	-4.5	-4
CC(=O)c1c(N2CCN(C)CC2)[nH]c(-c2ccccc2)nc1=S	-7	-3	0.3	-0.3%	-2.9	-24
CCn1c(-c2cc(-c3ccccc3OC)nc3ccccc23)n[nH]c1=S	0	0	-0.4	2.6%	1.2	-5
COc1cccc(CC2CC(=O)N(c3ccc4c(C)cc(=O)oc4c3)C2=O)c1 (stereo unspecified)	-3	7	0.6	0.5%	0.9	-1
COc1ccc(N(C(=O)Cn2nnc3ccccc32)C(C(=O)NCc2ccco2)c2cccnc2)cc1 (stereo unspecified)	-20	-12	-0.2	0.6%	-4.8	-6

Compounds as they come; any-hit rate near 1.3%.
